# Screening data deposited in PubChem by several laboratories.
# Sa ugtP lethal – compounds lethal to S. aureus RN4220 ugtP deletion mutant. OD600 growth, 16 h; some inactives read as strong as hits. growth inhibition, % (no concentration beside the values). 330,000 tested, 0.54% active;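 active means z-score under -3 and OD600 up to 0.15 on both plates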;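 further: plate controls were untreated wells for no effect and antibiotic for full effect; wells of about 80 µL received 100 nL stock; the first replicate is given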
# Bead autofluor – counter-screen for toxin protease inhibitors: compound fluorescence; fluorescence intensity (test concentration not listed); compound autofluorescence counterscreen, microsphere flow cytometry; stronger effect = higher value; 360,000 tested, 3.1% active; AID 624483;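 active means at least 3 SD above the mean of all compounds, about 16000 in these data; inconclusive means too few beads counted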;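 further: 100 nL of 1 mM stock went into each well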
# Mtb hypoxia rep – Mtb hypoxia fluorescent reporter inhibition; 300,000 tested, 0.1% active; AID 1159583; fluorescence inhibition, % (no concentration beside the values); M. tuberculosis hypoxia-regulated fluorescent reporter, fluorescence;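 active means 35 to 45% if threefold the growth effect, above 45% if 1.5-fold the growth effect; inactive means the rest, general growth blockers included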;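 further: wells of about 50 µL received 100 nL stock; 0% = vehicle wells and 100% = reference inhibitor wells; whole bacteria with a GFP reporter of the hypoxia response; strong numbers were not always called active; many hits fall short of the cut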
# PrP UTR inh – suppresses PrP 5' UTR mRNA reporter expression; cell-based PrP 5' UTR mRNA reporter, plate reader; inhibition, % (no concentration beside the values); 340,000 tested, 0.35% active;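 active means every replicate at 50% or more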;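 further: 0 = median of the neutral control wells; tested in H4 reporter cells; numbers are from one replicate; inactives centre near -14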
# BJeLR viability – kills HRASV12-expressing BJeLR cells. BJeLR (HRASV12) viability, CellTiter-Glo ATP luminescence, 48 h; reference of the scale not given here. 300,000 tested, 0.17% active. inhibition, % (test concentration not listed);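 active means replicate mean above 50%; inconclusive means above 50% but judged a plate artefact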;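 further: 50 nL library stock added to about 25 µL; numbers are from one replicate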
# Sa RN4220 lethal – kills Staphylococcus aureus RN4220 | S. aureus RN4220 growth, OD600, 16 h | inhibition, % (concentration not given with the values) | 330,000 tested, 0.33% active | AID 1259311;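 active means z-score of -3 or lower and OD600 up to 0.18 on both plates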;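 further: plate controls were untreated cells for no effect and reference antibiotic for full effect; stock transfer was 100 nL into about 80 µL; one replicate is shown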
# Mtb hypoxia rep growth – second read-out of Mtb hypoxia rep, no call of its own (marks repeat the call); growth inhibition, %; measured here: M. tuberculosis growth (absorbance);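 0% = vehicle and 100% = reference antibiotic; read after six days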
# * = called active by the depositor; ? = inconclusive; · = not tested or not shown.
SMILES,Sa ugtP lethal,Bead autofluor,Mtb hypoxia rep,Mtb hypoxia rep growth,PrP UTR inh,BJeLR viability,Sa RN4220 lethal
CCOc1ccc(C(=O)CCC(=O)NNC(=O)c2ccccc2O)cc1,-3,4287,-10,-16,-8,-6,4.0
Cc1cc(C(=O)Nc2ccc(S(=O)(=O)N3CCOCC3)cc2)c(C)o1,6,·,-4,1,-1,-2,3.2
COc1ccc(O)c(-c2[nH]ncc2C(=O)c2cccc(C)c2)c1,-5,3716,-8,1,-24,-6,2.9
COc1ccccc1C(=O)Nc1ccnn1C1CCN(Cc2csc(C(C)=O)c2)CC1,11,4364,0,-5,-13,4,4.7
Nc1ccccc1SCC(=O)Nc1cccc2ccccc12,·,3755,·,·,-22,1,·
Cc1c(C(=O)NCc2ccccn2)sc2nc(-c3ccc(F)cc3)cn12,0,19364*,14,8,-34,5,-0.1
COc1cccc(NS(=O)(=O)c2c(C)n(C)c(=O)n(C)c2=O)c1,-1,6940,4,4,0,-5,-14
COCCn1c(NCc2ccc(C)cc2)nc2c1c(=O)[nH]c(=O)n2C,0,4661,·,·,-22,-2,3.0
CNc1oc(-c2ccc(OCc3ccccc3)cc2)nc1C#N,-8,2513,-2,11,-65,6,15
O=c1[nH]c(CSc2ncc(C(F)(F)F)cc2Cl)nc2ccccc12,11,2669,1,10,-51,1,9.8
Cc1cc(CN(C)C(=O)c2ccc3nc(Cc4ccccc4F)oc3c2)on1,4,4490,0,1,-19,-9,5.7
COc1ccccc1NC(=O)CC(c1ccc(F)cc1)c1ccco1 (configuration not stated),1,4586,-10,-3,-6,-9,9.2
Cc1ccc2occ(/C=N/NC(=O)c3ccc(O)cc3)c(=O)c2c1,·,5939,·,·,-3,2,·
CC1CCCCC1NC(=O)Cn1cnc2c1c(=O)n(C)c(=O)n2C (configuration not stated),-1,?,-3,14,·,·,-1.6
COc1ccc(-n2nnnc2SC(C)C(N)=O)cc1 (configuration not stated),2,9312,15,3,-24,1,1.1
COC(=O)[C@@H](NC(=O)Nc1ccc(OC)cc1)C(C)C,9,8405,14,4,-13,-4,2.1
O=C(N/N=C1\CCc2ccccc21)c1ccncc1,·,2237,·,·,-85,3,·
CCCCNC(=O)c1onc(CSc2ccc(OC)cc2)c1C(=O)O,·,3618,·,·,-19,1,·
Cc1cccc2cc(C#N)c(SCC(=O)NNC(=O)Cc3ccccc3)nc12,-2,5961,3,8,2,-14,2.1
O=C(Cc1cccc2ccccc12)NCCOc1ccccc1F,5,3445,8,1,-8,-13,3.9
Cc1ccc(CNC(=O)C2CCN(S(=O)(=O)c3cccc4nonc34)CC2)cc1,2,5860,-7,2,-8,-9,1.0
CC(C)CC(=O)CN1C(=O)C2(OCCO2)c2ccccc21,·,23745*,·,·,-5,2,·
CNC(=O)c1[nH]cnc1C(=O)N[C@@H](Cc1ccccc1)C(=O)OC(C)(C)C,·,3589,·,·,-33,5,·
O=C(CN1C(=O)NC2(CCCCCC2)C1=O)NCc1ccccc1,2,3668,20,5,5,·,1.9
CCn1ncc(/C=N/O)c1C,·,2798,·,·,-5,5,·
CC(Sc1nnc(-c2ccc(O)cc2)o1)C(=O)Nc1cccc2ccccc12 (configuration not stated),-7,3952,-68,-3,-17,3,1.1
CCn1c(SCC(=O)N2CCCC(C)C2)nnc1-c1ccco1 (configuration not stated),5,5653,18,3,-14,1,4.4
Cn1c(NCC(O)CO)nc2c1c(=O)n(Cc1ccc(Cl)c(Cl)c1)c(=O)n2C (configuration not stated),3,4915,·,·,-21,-5,2.4
O=C(N/N=C\c1c(O)ccc2ccccc12)c1cncc(Br)c1,·,3289,·,·,33,13,·
O=C(CN1CCCN(Cc2ccc(F)cc2Cl)C1=O)NC1CCCC1,-7,3834,-9,-4,-22,-6,0.7
CCOc1nc(-c2ccccc2)c2cc(Br)ccc2n1,22,3837,15,0,-14,1,2.7
COCCn1c(SCC(=O)Nc2ccccc2C)nc2c(oc3ccccc32)c1=O,3,1930,9,-1,3,-5,3.2
O=C(CNCC(=O)Nc1ccc(F)c(F)c1F)Nc1ccc(F)c(F)c1F,-2,3701,-5,4,·,-7,3.9
CCOCCn1c(CC)nc2ccccc21,4,3807,9,9,-20,-17,4.7
COc1ccccc1NC(=O)N(CCN(C)C)Cc1cc2cc(C)ccc2[nH]c1=O,3,3311,9,5,7,-5,-11
COCCNC(=O)CN1C(=O)CN=C(c2ccccc2)c2ccccc21,6,4759,7,3,0,-11,3.8
COc1cccc2cc(C(=O)OCC(=O)NC3CCCC(C)C3C)c(=O)oc12 (configuration not stated),0,3817,-15,7,-63,·,-0.2
OCCCN1CCN(CCOc2ccccc2-c2ccccc2)CC1,5,8310,17,13,-79,6,7.0
CCOC(=O)N1CCN(Cc2nc3cc(NC(C)=O)ccc3n2CC)CC1,-1,3471,3,-2,-17,-4,-0.1
Cn1c(-c2ccccc2)cnc1N,1,2147,·,·,-34,1,0.5
Cn1cc(CN2CCC(C(=O)N3CCCC3)CC2)c(-c2ccccc2F)n1,4,4446,-6,-10,-11,·,6.4
COc1ccc(N(C(=O)c2ccco2)S(=O)(=O)c2cccc([N+](=O)[O-])c2)cc1,-3,11588,-3,12,2,-8,0.8
Cc1cc(C)n2[nH]c(=O)c(N=Nc3cccc(C(F)(F)F)c3)c2n1,-9,2052,10,1,-9,8,-15
CC1=C(n2nnc3ccccc32)C(c2ccccc2)C(C#N)=C(N)O1 (configuration not stated),-6,11357,2,0,-21,9,5.1
C/C(NC1CCCC1)=C(/C#N)C(N)=O,2,6846,-1,-3,-26,0,2.8
CCCCCCn1cc(C(=O)O)c(=O)c2cc(F)c(N3CCN(C(=O)OCC)CC3)cc21,6,3889,15,0,-38,2,2.5
CCn1c2ccccc2c2cc(/C=N/NC(=O)c3ccncc3)ccc21,·,4222,·,·,-28,3,·
O=c1ccc2cc([N+](=O)[O-])c(CCO)cc2o1,-5,4272,8,5,-17,1,-14
CCN1CCN(c2nc(Nc3cc(OC)ccc3OC)nc(Nc3cc(OC)ccc3OC)n2)CC1,14,3745,-8,-5,-24,-2,0.1
CC(=O)c1cccc(NC(=O)[C@@H](NC(N)=O)C(C)C)c1,1,3401,12,9,-12,-1,4.0

# Two records drawn at random from those above, as already listed:
SMILES,Sa ugtP lethal,Bead autofluor,Mtb hypoxia rep,Mtb hypoxia rep growth,PrP UTR inh,BJeLR viability,Sa RN4220 lethal
CCCCCCn1cc(C(=O)O)c(=O)c2cc(F)c(N3CCN(C(=O)OCC)CC3)cc21,6,3889,15,0,-38,2,2.5
COc1ccc(N(C(=O)c2ccco2)S(=O)(=O)c2cccc([N+](=O)[O-])c2)cc1,-3,11588,-3,12,2,-8,0.8

# Just Sa RN4220 lethal, Sa ugtP lethal and BJeLR viability, for some of the entries so far:
SMILES | Sa RN4220 lethal | Sa ugtP lethal | BJeLR viability
Cn1cc(CN2CCC(C(=O)N3CCCC3)CC2)c(-c2ccccc2F)n1 | 6.4 | 4 | ·
CCCCCCn1cc(C(=O)O)c(=O)c2cc(F)c(N3CCN(C(=O)OCC)CC3)cc21 | 2.5 | 6 | 2
O=c1ccc2cc([N+](=O)[O-])c(CCO)cc2o1 | -14 | -5 | 1
C/C(NC1CCCC1)=C(/C#N)C(N)=O | 2.8 | 2 | 0
Cc1cc(C)n2[nH]c(=O)c(N=Nc3cccc(C(F)(F)F)c3)c2n1 | -15 | -9 | 8
CCN1CCN(c2nc(Nc3cc(OC)ccc3OC)nc(Nc3cc(OC)ccc3OC)n2)CC1 | 0.1 | 14 | -2

# The listing continues:
SMILES,Sa ugtP lethal,Bead autofluor,Mtb hypoxia rep,Mtb hypoxia rep growth,PrP UTR inh,BJeLR viability,Sa RN4220 lethal
CCOc1ccccc1NC(=O)COC(=O)c1c[nH]c2ccccc12,2,?,10,-1,-23,·,3.7
CC(NC(=O)c1nc[nH]c1C(=O)N(C)Cc1ccccc1)C(=O)OC(C)(C)C (configuration not stated),10,·,10,10,·,·,2.9
CC(C)(C)S(=O)N1Cc2cc(CO)cc(CCO)c2[C@H]1CCO (some centres not stated),2,3655,-4,9,-22,·,2.4
COc1ccc([N+](=O)[O-])cc1NS(=O)(=O)c1cccc(C(=O)O)c1,0,4609,-6,9,·,-3,2.6
COc1ccc(/C=C(\C#N)C(=O)Nc2ccccn2)cc1,-1,3780,7,-3,-6,-5,1.9
CCOC(=O)N1CCN(C(c2ccc(F)cc2)c2sc3nc(C)nn3c2O)CC1 (configuration not stated),5,6196,4,5,-8,-8,7.1
CCC(C)(C(=O)Nc1ccccc1C)N(C(=O)CNC(C)=O)c1ccc(C)cc1 (configuration not stated),-5,2199,10,4,-15,0,4.9
NC(CO)c1nnc(C(CCC(=O)O)NC(=O)C2CCNCC2)o1 (configuration not stated),7,·,21,9,·,·,4.0
CC1CC(C)CN(CC(=O)NC(c2ccccc2)c2ccccc2)C1 (configuration not stated),0,4350,9,3,-11,-8,4.9
CCCCCCn1c(CN2CCN(Cc3ccccc3)CC2)nc2c1c(=O)n(C)c(=O)n2C,-10,20131*,0,14,-20,-1,5.8
CCC(=O)Nc1ccc(C(=O)CN2CCC(C)CC2)cc1,4,·,0,4,·,13,5.1
Cc1nn(Cc2n[nH]c(=S)n2Cc2ccccc2)c(C)c1Cl,1,2511,6,3,-17,-10,8.7
COc1ccccc1C(=O)NCC(=O)OCC(=O)Nc1cccc(S(=O)(=O)N2CCCCCC2)c1,4,3364,12,6,-16,3,7.9
COc1ccccc1CNC(=O)c1ccc(Cl)c(S(=O)(=O)N2CCCC2)c1,2,?,7,12,-20,·,0.5
COCCNC(=O)CC(=O)N/N=C/c1ccc(C(=O)OC)cc1,·,4237,·,·,-19,6,·
CC(=O)N1c2ccc(S(=O)(=O)N3CCCC(C(=O)NCc4ccccc4Cl)C3)cc2CC1C (configuration not stated),5,6121,1,6,-19,-7,1.7
CCOC(=O)c1sc2ncnc(N3CCN(C)CC3)c2c1C,4,2124,22,1,-5,4,6.3
C=CCn1c2ccccc2c2nnc(SC(CC)C(=O)Nc3nc(C)c(C(=O)OCC)s3)nc21 (configuration not stated),-9,·,-4,1,-17,-15,-0.7
CCOC(=O)c1sc(Nc2nc(C)cc(OC)n2)nc1C,-13,3303,-2,11,-25,16,-2.2
O=C(Cc1c[nH]c2ccccc12)NN=Cc1ccccc1O,0,·,3,-3,·,·,1.0
COc1ccc2cc(C(=O)C3CCCN(C(=O)c4cnn(C(C)C)c4)C3)ccc2c1 (configuration not stated),7,5527,-14,-8,-25,-6,3.0
CCOC(=O)c1c(C=O)c2sc(C)cc2n1C,-1,3475,-1,9,-26,-8,3.4
COc1cc(OC)c2cc(C(=O)N/N=C/c3cccc(OC)c3O)[nH]c2c1,·,3418,·,·,11,-11,·
C#CCCOC(=O)N1C2=NC(C(=O)OC)=C(C(=O)OC)[C@@H]3N(Cc4ccccc4)c4ccccc4[C@]23C[C@H]1C(=O)OC,·,4066,·,·,-56,-8,·
O=C(Nc1nccs1)c1ccc(-c2ccccc2[N+](=O)[O-])o1,-5,5264,4,-1,-103,1,20
Cc1cccc(NC(=O)c2cc(S(=O)(=O)NCc3ccco3)ccc2F)c1C,-4,23011*,7,5,-9,1,3.2
CC(CC(=O)Nc1cccnc1)=NNC(=O)COc1ccc(Cl)cc1Br,0,·,7,14,·,·,2.1
C=CCN1C(=O)c2ccc(C(=O)OCC(=O)N(CC)c3c(N)n(Cc4ccccc4)c(=O)[nH]c3=O)cc2C1=O,-1,3474,2,7,-35,·,-1.3
COC(=O)c1cc2c(=O)n3ccccc3nc2n(Cc2cccnc2)c1=N,2,·,12,8,·,-6,3.3
Cc1ccc2c(c1)c(N=Nc1ccc([N+](=O)[O-])cc1)c(O)n2C,2,3706,4,12,-6,3,0.4
CCC(CC)C(=O)Nc1ccncc1,2,·,4,5,·,3,1.8
COc1ccc(C(C)=NNC(=O)C(NC(=O)c2ccccc2)c2n[nH]c(=O)c3ccccc23)c(OC)c1 (configuration not stated),0,·,-2,3,·,·,1.7
CC(C)(C)C(=O)NC1=NCCS1,-4,6059,·,·,-61,3,0.3
Cc1ccc(-n2c(C(C)C)nc3oc4ccccc4c(=O)c3c2=O)cc1,-2,4406,9,8,-93,-7,9.5
O=C(O)CCCN1C(=O)c2cccc3cccc(c23)C1=O,·,3367,·,·,-15,6,·
COc1ccc(-n2c(C)cc(SC)c(C(C)=O)c2=S)cc1,0,2143,·,·,-7,-5,-2.3
O=C1NC(=Nc2ccccc2)c2c1cccc2[N+](=O)[O-],14,2164,18,13,-19,-2,6.0
O=C(CCCOc1ccc(Cl)cc1Cl)N/N=C\C1CCCCC1,·,10707,·,·,-8,3,·

# Random draw from the library; about 4% have a hit in one of these screens.
